From PubChem BioAssay
VDR inh = vitamin D3 receptor (human) inhibition. P11473. VDR-SRC2-3 peptide fluorescence polarization, 2 h. Potency, µM, inactives show max response, negative = inhibition, actives largely listed as inhibitors. actives 0.93% (n = 400,000). AID 504847; active means well fitted inhibition curve with a large enough effect; inconclusive means small, poorly fitted or top-dose-only effect, or another doubt; inactive means no such curve, though single readings can be large or run the other way; further: series mostly up to about 120 µM
Target sequence (P11473 whole entry, looked up): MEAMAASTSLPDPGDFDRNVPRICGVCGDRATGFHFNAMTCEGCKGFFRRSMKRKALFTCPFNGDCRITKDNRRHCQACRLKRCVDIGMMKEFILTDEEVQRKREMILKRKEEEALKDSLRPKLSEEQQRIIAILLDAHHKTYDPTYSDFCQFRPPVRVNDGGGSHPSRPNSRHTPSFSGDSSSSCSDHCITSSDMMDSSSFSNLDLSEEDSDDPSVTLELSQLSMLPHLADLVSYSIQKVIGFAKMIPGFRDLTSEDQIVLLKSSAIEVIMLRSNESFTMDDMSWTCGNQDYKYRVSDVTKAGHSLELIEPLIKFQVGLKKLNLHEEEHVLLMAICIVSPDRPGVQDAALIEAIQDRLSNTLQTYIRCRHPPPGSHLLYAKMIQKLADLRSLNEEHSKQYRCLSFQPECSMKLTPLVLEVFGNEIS
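Fluorescence polarization assay measuring small-molecule disruption of VDR binding to the coregulator peptide SRC2-3. Compounds were pin-transferred (23 nl) into the reagent mix and incubated 2 h at room temperature before reading.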
An asterisk follows results filed as active; u = inconclusive; & = joins results of further samples; ! = a repeat was not active; [ ] = another dose, or the depositor's remark. On the % scale 0 is the no-effect control and ±100 the full control effect; potency means the concentration at half of the fitted maximal effect. Only part of the results is shown; count on the stated rates, not on these rows.

Preview:
| VDR inh | mol |
| --- | --- |
| -4% | Cc1cccc(N(CC(=O)Nc2cccnc2)S(C)(=O)=O)c1 |
| -8% | COc1cccc(-c2cc(C(F)(F)F)nc(N3CCCCC3)n2)c1 |

The whole of this part, from the start:
| VDR inh | mol |
| --- | --- |
| -4% | Cc1cccc(N(CC(=O)Nc2cccnc2)S(C)(=O)=O)c1 |
| -8% | COc1cccc(-c2cc(C(F)(F)F)nc(N3CCCCC3)n2)c1 |
| -13% | COc1ccc(CCC(=O)NCCOc2ccc(Cl)cc2)cc1 |
| -5% | CCNc1ncc2nc(-c3ccccc3)c(=O)n(Cc3cccc(OC)c3)c2n1 |
| -9% | COc1ccc(C(F)(F)F)cc1N/C=C/c1nnnn1-c1ccc(C)cc1 |
| -10% | CCOCCCn1c(=N)c(C(=O)NCc2cccnc2)cc2c(=O)n3ccccc3nc21 |
| -12% | Cn1c(Cc2cccc3ccccc23)nnc1SCC(=O)N1CCN(c2cccc(Cl)c2)CC1 |
| -18% | CCOC(=O)/C=C(\C)Nc1cc(C)nn1-c1ccccc1 |
| -11% | Cc1ccc(NC(=O)CN2c3cccc4cccc(c34)S2(=O)=O)cc1S(=O)(=O)N1CCOCC1 |
| 5% | COc1ccc(Cl)cc1NC(=S)NCc1cccnc1 |
| -6% | On1nnc2c3ccccc3c3ccccc3c21 |
| 5% | C/C(=N\Nc1c([N+](=O)[O-])c(C)nn1C)c1ccc(F)cc1F |
| 2% | CN(C)CCNC(=O)c1ccc2nc(Cc3ccccc3)oc2c1 |
| 20% | Cc1cc(C=C2C(=O)c3ccccc3C2=O)c(C)n1-c1ccccc1 |
| 13% | CCOC(=O)N1CCN(C(=O)c2cc(-c3ccc(OCC)cc3)nc3ccccc23)CC1 |
| -18% | COCCNC(=O)c1cc(-c2cccs2)on1 |
| 2% | O=C(N/N=C/c1c(O)n(Cc2ccco2)c(=O)[nH]c1=O)c1ccccc1 |
| 15% | Cc1ccc(C)c(OCC(O)CN2CCCCC2C)c1 (stereo not given) |
| -12% | COc1ccc(C(=O)NCCS(=O)(=O)NCc2ccc(F)cc2)cc1 |
| -26% | CC(C)(C)OC(=O)C[C@H]1C/C=C\C[C@@H](CC(=O)NCCO)C(=O)NCCOC1=O |
| 6% | Cc1ccc(S(=O)(=O)c2cc3c(=O)n4ccccc4nc3n(Cc3ccco3)c2=N)cc1 |
| 4% | CNC(=O)CC(=O)Nc1ccccc1C(=O)O |
| -6% | O=C(Nc1cccc(Cl)c1)c1ccc2nc(CCc3ccccc3)oc2c1 |
| 3% | CCOc1ccc(NC(=O)CCC(=O)NNC(=O)COc2ccc(C)cc2Br)cc1 |
| 1% | CC1CCCC(C)N1C(=O)COC(=O)c1ccc2ccccc2n1 (stereo not given) |
| -3% | CCCc1nnc(NC(=O)CS(=O)(=O)c2ccc(C)cc2)s1 |
| 0% | CNC[C@@H](O)[C@@H](O)[C@H](O)[C@H](O)CO |
| 4% | Cc1ccc2nc(N(CCCN(C)C)C(=O)c3ccc(S(=O)(=O)N(C)C)cc3)sc2c1 |
| 9% | COCc1c(C(=O)N/N=C(/C)c2cccs2)nnn1-c1nonc1N |
| -16% | CCCCN(C)c1ccc([N+](=O)[O-])cc1 |
| 4% | CSc1ccc(CNC(=O)c2c(C)noc2C)s1 |
| 7% | Cc1ccc(N2C(=O)C3CC(c4ccccc4)=C4C5C=CC(C6C(=O)N(c7ccc(C)cc7)C(=O)C56)C4C3C2=O)cc1 (stereo not given) |
| 0% | Cc1ccc(-c2cnc(SCCNC(=O)c3ccco3)[nH]2)cc1 |
| 17% | CCCCn1c(SCc2ncc(-c3ccccc3)o2)nc2cc(S(N)(=O)=O)ccc21 |
| -19% | Cc1cccc(-n2ncc3c(N(C)Cc4ccccc4)ncnc32)c1 |
| 0% | CCCOc1ccc(C(CC(=O)O)NC(=O)c2ccc3c(c2)OCO3)cc1 (stereo not given) |
| 9% | Cc1cc(C)c[n+](C(C)C(=O)c2ccc(-c3ccccc3)cc2)c1 (stereo not given) |
| -22% | NC(N)=NC(N)=Nc1ccc2ccccc2c1 |
| -1% | CCOC(=O)n1cc(-c2cnc(CNC(=O)C(C)(c3ccccc3)c3ccccc3)o2)c2ccccc21 |
| u | Fc1cccc(CSc2nc3ccncc3[nH]2)c1 |
| -5% | O=C(c1ccc(Cl)cc1)C1CCN(CC(=O)N2CCCCC2)CC1 |
| 3% | O=C(C1CC1)N1N=C(c2ccccc2)CC1(O)C(F)(F)C(F)(F)F (stereo not given) |
| -20% | CCOC(=O)C1(CCc2ccccc2)CCN(Cc2ccn[nH]2)CC1 |
| 12% | CCOC(=O)C(=CNc1ccccc1N1CCOCC1)C(=O)OCC |
| 3% | Cc1nc2ccc(S(=O)(=O)NC(CC(C)C)C(=O)NCc3ccc(Cl)cc3)cc2s1 (stereo not given) |
| -17% | Cc1ccc(C)c(NC(=O)C(=O)NCC2CCCN2S(=O)(=O)c2cccs2)c1 (stereo not given) |
| -6% | Cc1ccc(OCCCCN2CCc3ccccc3C2)cc1 |
| 10% | CC(=O)N1CCOc2cc(S(=O)(=O)N3CCN(c4ccccc4)CC3)c(Cl)cc21 |
| 1% | CCN1CCN(c2nc3c(S(=O)(=O)c4ccc(C)cc4)nnn3c3ccsc23)CC1 |
| 12% | N#Cc1c(C#N)c(-c2ccccc2)n(-c2ccc(C(=O)O)cc2)c1N |
| 13% | CCn1c(SCC(=O)Nc2c(C)cccc2C)nnc1-c1nonc1NC(C)=O |
| -2% | COCCCNC(=O)c1c[nH]c2ccc(S(=O)(=O)N(C)c3ccccc3C)cc2c1=O |
| 7% | COc1ccc2[nH]cc(C=O)c2c1 |
| -4% | Cc1noc(C)c1C(=O)Nc1ccc(S(=O)(=O)N2CCC(C)CC2)cc1 |
| 17% | COc1ccc(C(=O)Oc2ccc(-c3nnco3)cc2)cc1S(=O)(=O)N1CCOCC1 |
| -27% | COC(=O)c1c(NC(=O)c2ccc(C)o2)sc2c1CCCCC2 |
| 50µM*! | CC(=O)N[C@@H](CSC/C=C(\C)CC/C=C(\C)CCC=C(C)C)C(=O)O |
| -26% | COc1ccc(C(CNC(=O)c2ccccc2SC)N(C)C)cc1 (stereo not given) |
| -24% | Cc1cccc(NC(=O)/C(C#N)=C\c2cccnc2)c1 |
| 1% | CCOc1ccc(/C=C/C(=O)NCCc2ccc(OC)c(OC)c2)cc1 |

The results go on.
| VDR inh | mol |
| --- | --- |
| 2% | Cc1cc(=O)oc(C)c1C(=O)N1CCCc2ccccc21 |
| 9% | Cc1ccc(OCCC(=O)Nc2ccccc2C(=O)N2CCCCC2)cc1 |
| 1% | Cc1cc(Cl)ccc1NC(=S)NCC(C)C |
| -3% | Cc1ccc(S(=O)(=O)/C(C#N)=C/c2c(N3CCOCC3)nc3c(C)cccn3c2=O)cc1 |
| -20% | CC1CCC(NC(=O)c2cc3c(=O)n(C)c4ccccc4c3n2C)CC1 (stereo not given) |
| -9% | Cc1ccnc(NS(=O)(=O)c2ccc(NC(=O)c3ccc(N4C(=O)CCC4=O)cc3)cc2)n1 |
| -7% | Cc1nc2ncnn2c(C)c1CCC(=O)NCc1ccc2c(c1)OCO2 |
| -16% | CC(NC(=O)CSc1ccccc1)c1ccccc1 (stereo not given) |
| 2% | COc1ccc(C(C)=O)cc1CSc1nnnn1-c1ccc(O)cc1 |
| -10% | COCCOC(=O)c1c(C)n(S(=O)(=O)c2ccc(C)cc2)c2ccc(NS(=O)(=O)c3ccc(C)cc3)cc12 |
| -5% | CCOc1ccc(-n2c(C)nc3cc(C(=O)NCC4CCCO4)ccc32)cc1 (stereo not given) |
| -4% | COc1cccc(C(C(=O)NC(C)(C)C)N(CCc2ccccc2)C(=O)CCC(=O)Nc2cc(C)on2)c1OC (stereo not given) |
| -5% | CCN1CCN(C(=O)C(C)Sc2nc3nc(C)cc(C)n3n2)CC1 (stereo not given) |
| -3% | O=C(/C=C\Nc1ccc(Cl)cn1)c1ccc(Br)cc1 |
| 5% | Cc1cccc(C(C)C)c1NC(=O)COC(=O)CNS(=O)(=O)c1ccccc1 |
| 8% | Cc1cc(OCc2cc(C(=O)N(C)CCOc3ccccc3)no2)cc(C)c1Cl |
| -3% | COc1cccc(CNC(=O)C2=C(C)C(=O)OC23CCN(C(C)=O)CC3)c1OC |
| -21% | CCn1c(SCC(=O)NC(C)C)nnc1-c1cccs1 |
| 1% | NC(=O)C1(S(=O)(=O)c2ccccc2)CCCCC1 |
| 3% | Cc1ccc(SCC(=O)OCC(=O)NCCNC(=O)COC(=O)CSc2ccc(C)c(C)c2)cc1C |
| 31%[activator] | CCN(C(=O)Cn1cnc2ccccc2c1=O)C1CCS(=O)(=O)C1 (stereo not given) |
| -28% | Cc1cc(C)cc(NC(=S)NCc2ccc(F)cc2)c1 |
| -4% | CCN(CC(=O)NC(=O)NCc1ccccc1)Cc1nc2ccccc2c(=O)[nH]1 |
| -2% | CCc1ccc(N2CC(C(=O)NC3CCCCC3C)CC2=O)cc1 (stereo not given) |
| -14% | O=C1c2ccccc2-c2onc3c(N4CCN(C5CCCCC5)CC4)cc(NCCO)c1c23 |
| 1% | COc1cc(NC(=S)N(C)C)c(OC)cc1Cl |
| 12% | COc1ccc2nc(NC(=O)C3CCN(C(=O)c4ccc(F)cc4)CC3)sc2c1 |
| 17% | O=C(CN1C=NS(=O)(=O)c2ccccc21)Nc1ccc(Br)cc1 |
| -19% | CCOc1ccc(N2C(=O)C(Cl)=C(Nc3ccccc3O)C2=O)cc1 |
| -14% | CC(=O)N/C(=C/c1cccnc1)C(=O)Nc1ccc(Cl)cc1 |
| 2% | CCOc1ccc(CNC(=O)C2CCN(S(=O)(=O)N3CCC(C)CC3)CC2)cc1OC |
| -15% | CN(CC(=O)Nc1cccc(F)c1)C(=O)CCSc1ccc(F)cc1 |
| -5% | CCCCc1nnc(NC(=O)c2oc3ccc(OC)cc3c2C)s1 |
| -8% | N#Cc1c(N)oc(-c2ccco2)c1-c1ccco1 |
| -2% | COc1ccccc1OCc1ccc(C(=O)NCc2cccnc2)o1 |
| 1% | COc1ccc(OC)c(C(=O)CSc2ncc3c(n2)-c2ccccc2N(Cc2ccccc2C)S3(=O)=O)c1 |
| -8% | O=C(CCC(=O)N1CCN(c2ccccn2)CC1)Nc1nnc(C2CCCCC2)s1 |
| 11% | CCc1ccc2nc3n[nH]c(N)c3cc2c1 |
| u | O=C(c1cncc(Br)c1)N1CCN(S(=O)(=O)c2ccccc2C(F)(F)F)CC1 |
| 26% | CC1(C)CC(=O)c2c(oc3ccc(NS(=O)(=O)c4cccc5cccnc45)cc23)C1 |

Part of the list above, as labelled records.
> COc1cc(NC(=S)N(C)C)c(OC)cc1Cl
  VDR inh: 1%
> CC1(C)CC(=O)c2c(oc3ccc(NS(=O)(=O)c4cccc5cccnc45)cc23)C1
  VDR inh: 26%
> COc1ccc2nc(NC(=O)C3CCN(C(=O)c4ccc(F)cc4)CC3)sc2c1
  VDR inh: 12%

The list goes on:
| VDR inh | mol |
| --- | --- |
| 8% | CC(NC(=O)Cn1c(-c2cccs2)cc2cc(F)ccc21)c1ccccc1 (stereo not given) |
| u | COC(=O)c1c(NC(=O)CCCOc2ccc(C)cc2)sc2c1C(C(=O)OC)CC2 (stereo not given) |
| -30% | COc1cc(/C=C2\C(=O)NN(c3ccccc3)C2=O)cc([N+](=O)[O-])c1O |
| -17%&-18%&-2%&3%&-8% | O=C(O)C(O)c1ccccc1 (stereo not given) |
| -11% | Cc1nn(-c2cc(Cl)ccc2Cl)c(C)c1C(=O)O |
| 5% | CCN(CC)C(=O)c1[nH]cnc1C(=O)Nc1ccon1 |
| -2% | COc1ccc(CN2CCN(Cc3ccccc3F)CC2)cc1OC |
| -11% | Brc1cccc(-c2nc3cccnc3nc2-c2cccc(Br)c2)c1 |
| 5% | O=C1C2C(c3ccccc3)CC=CC2C(c2ccoc2)N1Cc1ccccc1 (stereo not given) |
| 6% | Cc1ccc(N2CCN(c3ccc(NCc4nc5ccccc5n4C)cc3)CC2)cc1 |
| 15% | CCN(c1ccccc1)S(=O)(=O)c1ccc(OC)c(N=N/C(C(=O)Nc2ccccc2)=C(/C)O)c1 |
| -4% | COC(=O)C1=C(CCc2ccccc2)NC(=O)NC1c1ccc([N+](=O)[O-])cc1 (stereo not given) |
| 4% | C/C(=N\NC(=O)c1ccc(Cl)c(Cl)c1)c1ccccn1 |
| -27% | Cc1ccc(OCCCCN2CCCCC2)c(C)c1 |
| -14% | CCCN(C(=O)c1cc(CC)c(C)s1)c1c(N)n(Cc2ccccc2)c(=O)[nH]c1=O |
| -6% | O=C(Nc1ccc(S(=O)(=O)N2CCOCC2)cc1)C1COc2ccccc2O1 (stereo not given) |
| -5% | O=C(Cn1cnc([N+](=O)[O-])n1)c1ccc(O)c(O)c1 |
| 2% | N#Cc1c(NC(=O)c2ccc(-c3ccccc3[N+](=O)[O-])o2)sc2c1CCCC2 |
| 3% | CCOc1ccc2nc(N3CCCC(C(=O)Nc4cccc(Cl)c4C)C3)sc2c1 (stereo not given) |
| -2% | Cc1ccc2oc(=O)c3cc(C(=O)NCCCN4CCN(C)CC4)sc3c2c1 |
| 3% | CC(C)(C)c1nc(SCC(=O)Nc2ccc3c(c2)OCCO3)c2ccccc2n1 |
| -4% | CCOC(=O)COc1ccc(C(=O)Nc2cccc(Cl)c2C)cc1 |
| -1% | CS(=O)(=O)N(CC(=O)Nc1ccc(S(=O)(=O)N2CCCC2)cc1)c1ccccc1 |
| -10% | NC(=O)c1ccccc1NC(=O)c1ccccc1Cl |
| 15% | CCCCc1ccc(S(N)(=O)=O)cc1 |
| 10% | CN1OC(COC(=O)c2ccc(Cl)cc2)CC1c1ccccc1 (stereo not given) |
| -2% | Cc1ccc2nc(-c3cccnc3)cc(C(=O)Nc3ccc(F)cc3C)c2c1 |
| -16% | O=C(Cc1ccc(Cl)cc1)Nc1cccc(C(=O)Nc2ccccc2C(=O)O)c1 |
| 10% | O=C(Cc1csc(N2CCOCC2)n1)N/N=C/c1ccc(Cl)cc1Cl |

Already shown: 2 of the compounds above.
| VDR inh | mol |
| --- | --- |
| -16% | O=C(Cc1ccc(Cl)cc1)Nc1cccc(C(=O)Nc2ccccc2C(=O)O)c1 |
| 10% | O=C(Cc1csc(N2CCOCC2)n1)N/N=C/c1ccc(Cl)cc1Cl |
